Screening results (PubChem BioAssay)
Rango dissoc inh: inhibition of RanGTP-driven Rango-importin beta dissociation; O95149+P62826; 340,000 tested, 0.071% active; AID 540253; Potency, µM (series often up to 46.1 µM), without a hit: at the top dose activity change, negative = inhibition; Biochemical FRET Rango-importin beta, RanGTP-induced dissociation; active means falling FRET ratio curve, often poorly fitted, with flat reads before Ran was added; inconclusive means other falling curves, or compound fluorescence or quenching; inactive means flat or rising ratio curve;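 further: potency means the concentration at half of the fitted maximal effect; % of control where 0% means no effect; nearly all actives have a fitted effect of over 45% in size; -100% = wells without RanGTP and RCC1; the record marks most hits as doubtful in a second field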
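Quantitative HTS using a FRET biosensor: 0.1 uM Rango, 0.25 uM importin beta, 0.6 uM Ran, 2 mM GTP, 0.2 uM RCC1 final, PBS with DTT, Tween-20 and BSA. Post-read taken 45 min after Ran addition.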
Rango-impB inh: prevents formation of the Rango-importin beta complex; Rango CFP/YFP FRET sensor + importin beta, 45 min; Potency, µM (titrated, usually from 92.2 µM), inactives show at the highest dose inhibition of complex formation; 340,000 tested, 0.031% active; active = rising FRET ratio curve, often small or poorly fitted; inconclusive = mostly compound fluorescence or quenching in the first reads; inactive = flat curves in all reads;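 further: potency means the concentration at half of the fitted maximal effect; 0% = DMSO wells and 100% = buffer wells lacking importin beta; nearly all actives have a fitted effect of over 15% in size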
Target sequence (Q14974 whole entry, looked up): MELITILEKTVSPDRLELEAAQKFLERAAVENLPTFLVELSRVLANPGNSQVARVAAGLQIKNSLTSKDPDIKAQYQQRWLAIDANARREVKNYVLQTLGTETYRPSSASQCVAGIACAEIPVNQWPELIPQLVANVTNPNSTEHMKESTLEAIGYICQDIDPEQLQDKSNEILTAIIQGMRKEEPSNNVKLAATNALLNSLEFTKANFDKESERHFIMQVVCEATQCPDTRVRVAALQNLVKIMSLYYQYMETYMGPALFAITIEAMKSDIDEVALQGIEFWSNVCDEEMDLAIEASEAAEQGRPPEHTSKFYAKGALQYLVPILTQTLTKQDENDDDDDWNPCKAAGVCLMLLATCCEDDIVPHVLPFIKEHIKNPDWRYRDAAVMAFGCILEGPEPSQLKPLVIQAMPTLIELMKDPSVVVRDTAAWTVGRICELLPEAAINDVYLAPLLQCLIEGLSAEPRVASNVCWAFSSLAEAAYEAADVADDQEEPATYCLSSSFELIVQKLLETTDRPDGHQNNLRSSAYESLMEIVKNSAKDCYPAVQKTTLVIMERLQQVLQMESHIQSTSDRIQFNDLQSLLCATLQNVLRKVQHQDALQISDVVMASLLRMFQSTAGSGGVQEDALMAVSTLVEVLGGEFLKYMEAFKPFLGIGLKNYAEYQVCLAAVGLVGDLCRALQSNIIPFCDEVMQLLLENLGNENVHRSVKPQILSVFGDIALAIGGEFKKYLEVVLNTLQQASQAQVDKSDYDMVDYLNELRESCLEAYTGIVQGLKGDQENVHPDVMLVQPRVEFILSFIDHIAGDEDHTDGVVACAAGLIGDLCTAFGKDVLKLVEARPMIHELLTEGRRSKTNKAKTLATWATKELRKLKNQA
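FRET biosensor (snurportin 1 IBB flanked by EYFP and cerulean), 50 nM, with compound 5 min, then 0.125 microM importin beta in PBS, 1 mM DTT, 0.02% Tween-20, 0.1% BSA. CFP/YFP ratio read after 45 min at room temperature; pre-read flags interference.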
miR-21 FLuc: miR-21 reporter, rising signal; HeLa miR-21 FLuc reporter, luciferase, 48 h; Potency, µM (doses to about 38.3 µM), for the others: at the top dose reporter change, positive = more light; 340,000 tested, under 10 active; active = well fitted rising curve with a large enough effect; inconclusive = small, poorly fitted or top-dose-only effect; inactive = no such curve, though single readings can be large or run the other way;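 further: % of control where 0% means no effect; miR-21 action dims this reporter so a rising signal means less miR-21 action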
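Using DMEM plus 10% FBS, HeLa miR-21-FLuc cells are incubated with test compounds (final up to about 40uM) for 48 hours; firefly luciferase signal is then imaged following reagent-mediated lysis.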
GLA inh pH 4.5: blocks human alpha-galactosidase A at pH 4.5; P06280; purified enzyme, 4-MU-alpha-Gal fluorescence, pH 4.5; activity change, negative = inhibition, % at 105 µM; 230,000 tested, under 10 active; AID 1467; inconclusive = small, poorly fitted or top-dose-only inhibition, or a rising curve; inactive = flat fitted curve, though single readings scatter; no compound was filed as active;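 further: 0% = full activity with enzyme and -100% = basal without enzyme; dose as in the result columns while the protocol names 77 µM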
Active calls of the source: *; ? = inconclusive; . = not tested or not shown; & = joins results of further samples; [ ] = another dose, or the depositor's remark. An excerpt; count on the stated rates, not on these rows.

SMILES	Rango dissoc inh	Rango-impB inh	miR-21 FLuc	GLA inh pH 4.5
COc1cccc(N2CCN(C(=O)CCn3c(=S)[nH]c4cc5c(cc4c3=O)OCO5)CC2)c1	.	.	-1.5%	7.3
COc1ccc(C2/C(=C(\O)c3cccc(OC)c3)C(=O)C(=O)N2c2ccccn2)cc1 (stereo not given)	4.3%	-0.2%	-0.9%	-23.9
Cc1ccn2c(-c3n[nH]c(=S)n3Cc3ccccc3)c(C)nc2c1	-1.8%	4.2%	-8.8%	-20.6
CC(C)(C)N(Cc1nc(-c2ccccc2)no1)C(=O)c1ccc2c(c1)OCO2	14.1%	1.9%	-8.4%	.
O=C(O)C1C2C=CC(C2)C1C(=O)N1CCc2ccccc21 (stereo not given)	-11.5%	1.7%	0.9%	-0.9
CCOCCc1nnc(NC(=O)CSc2ccccc2)s1	6.6%	4.5%	-2.5%	1.3
COC(=O)CCCC(=O)N1CCCC(CNS(=O)(=O)c2ccc(OC)cc2)C1 (stereo not given)	0.8%	3.2%	-0.3%	3.0
COCCNC(=O)C(OC(=O)c1ccco1)c1ccccc1F (stereo not given)	6.9%	-1.0%	-0.6%	.
O=C(NCCc1ccccc1)C(=O)NCC1(c2ccccc2)CCCC1	1.3%	5.9%	-2.9%	-22.9
O=C(CSc1nc2[nH]ncc2c(=O)n1-c1ccccc1Cl)N1CCCC1	-0.3%	0.3%	-19.1%	4.6[21.1 µM]
C#CCN(C(=O)c1ccc(OC)c(OC2CCN(C(C)C)CC2)c1)C1CCCCC1	-10.8%	-1.4%	-0.4%	.
CC(C)CSc1nc2ccccc2n1CC(N)=O	1.9%	5.5%	-12.4%	2.3
Cc1ccc(Oc2ncc(CN3CC(C)OC(C)C3)s2)cc1 (stereo not given)	13.5%	-5.1%	-10.8%	-1.7
CCC(CC)C1C(C#N)=C(N)Oc2n[nH]c(C)c21 (stereo not given)	-1.2%	-2.8%	28.5%	3.1
O=C(COc1ccccc1)NCC(=O)N/N=C/c1ccco1	-10.9%	1.6%	-2.9%	-2.6
CC(C)OC(=O)CN1C(=O)S/C(=C/c2ccc(N3CCCCC3)o2)C1=O	?	?	4.1%	-4.2
Cc1ccc(S(=O)(=O)NCCNc2ccc([N+](=O)[O-])cc2)cc1	-2.9%	-0.3%	9.9%	.
COc1ccc(NS(=O)(=O)c2ccc3nc(COc4ccc(C#N)cc4)[nH]c3c2)cc1	-23.0%	?	-4.5%	-7.5
O=C(CSc1nc2ccccc2o1)NCC(=O)c1ccccc1	-25.2%	-1.7%	-11.1%	-6.2
CCOC(=O)C1CCN(C2CC(=O)N(c3ccc(OCC)cc3)C2=O)CC1 (stereo not given)	8.8%	-1.2%	-1.2%	4.4
N#Cc1cccc2c1-c1ccccc1/C2=N/NC(N)=S	-8.0%	1.1%	16.9%	.
Cc1csc(NC(=O)CCn2c(=O)oc3ccc(Cl)cc32)n1	10.2%	2.8%	-5.0%	.
CCOc1ccc(NC(=O)CSc2nc(O)c(C)c(=O)n2-c2ccc(F)cc2)cc1	6.9%	-2.8%	12.4%	.
CCOC1(/N=C(\C)NS(=O)(=O)c2ccc(Cl)cc2)C(C)=CC(=O)C=C1C	12.2%	-3.4%	-0.7%	0.6
O=S1(=O)CCC(n2nccc2-c2ccccc2)C1 (stereo not given)	-11.0%	?	0.3%	.
Brc1cccc(CN2CCCCCCC2)c1	?	?	-0.7%	1.3
COCCn1cnc2c(c1=O)c1nc3ccccc3nc1n2/N=C/c1cccc(OC)c1	0.1%	-4.1%	-0.5%	4.7
CCOc1ccc(NC(=O)Cn2nnc(-c3ccccc3F)n2)cc1	1.4%	1.1%	-6.0%	2.6
O=c1[nH]c(C2CCN(S(=O)(=O)c3ccccc3F)CC2)nc2c1nnn2Cc1ccc(F)cc1	16.7%	0.3%	-1.1%	.
COc1ccc(S(=O)(=O)N2CCOCC2)cc1NC(=O)COC(=O)CCS(=O)(=O)c1ccc(C)cc1	0.4%	1.7%	.	.
CCc1ccc2oc(C(=O)NC3CCS(=O)(=O)C3)cc(=O)c2c1 (stereo not given)	-3.1%	0.2%	-0.8%	.
Cc1cc(N2CCCC2)nc2c(C)cccc12	-0.4%	-0.3%	1.1%	9.9
COc1ccc(C2C(=O)N(C3CCCCC3)CC(=O)N2C2CCCCC2)cc1 (stereo not given)	2.6%	-0.3%	3.4%&-1.4%	5.8
NC(=O)CCS(=O)(=O)CCN1CCCCC1	5.9%	2.5%	-2.8%	1.3
O=C(O)c1ccccc1C(c1ccccc1)c1ccccc1O (stereo not given)	-3.2%	2.2%	.	.
CC(Oc1ccccc1F)C(=O)/C=C/N(C)C (stereo not given)	?	?	-6.6%	6.2
COc1cccc(CNc2nnnn2C)c1	16.4%	-0.6%	-0.5%	.
CO/N=C(\Cn1ncc(N2CCCC2)c(Br)c1=O)c1ccc(Cl)cc1	0.9%	0.9%	0.5%	0.7
CC1CCN(C(CNS(=O)(=O)c2ccccc2)c2ccccc2)CC1 (stereo not given)	-5.8%	3.1%	.	.
COc1ccc(CCN2CCCC(CN(C)Cc3cc(Cl)c(O)c(OC)c3)C2)cc1 (stereo not given)	-6.8%	0.2%	-0.8%	.

An excerpt from above in order of the Rango-impB inh value, highest first.
SMILES	Rango dissoc inh	Rango-impB inh	miR-21 FLuc	GLA inh pH 4.5
CC1CCN(C(CNS(=O)(=O)c2ccccc2)c2ccccc2)CC1 (stereo not given)	-5.8%	3.1%	.	.
O=C(O)c1ccccc1C(c1ccccc1)c1ccccc1O (stereo not given)	-3.2%	2.2%	.	.
Cc1cc(N2CCCC2)nc2c(C)cccc12	-0.4%	-0.3%	1.1%	9.9

(further entries)
SMILES	Rango dissoc inh	Rango-impB inh	miR-21 FLuc	GLA inh pH 4.5
COCCCNc1nc(=S)[nH]c2cc(OC)c(OC)cc12	0.3%	-1.0%	0.9%	3.5
O=C(Nc1ccccc1F)Nc1cccc2ccc(O)cc12	-2.8%	-6.0%	-10.6%	19.3
O=C(NCCc1ccccc1)C1CC(=O)N(c2ccc3c(c2)OCCO3)C1 (stereo not given)	13.0%	8.5%	.	.
Cc1nn(Cc2cccc(C(=O)NN)c2)c(C)c1Cl	?	?	-7.6%	-4.3
O=C1CCCC(=O)C1C1c2ccccc2CCN1C(=O)CCl (stereo not given)	2.7%	0.7%	4.8%	-2.5
COc1ccnc(CN(C)C(=O)C2CCC(=O)N(Cc3cccc(C(F)(F)F)c3)C2)c1 (stereo not given)	9.2%	-2.2%	0.0%	.
COc1ccccc1NC(=O)/C=C\c1ccco1	-2.9%	-2.5%	-44.6%	.
Cc1ccc(-c2csc(N3CCN(CCCn4c(-c5ccncc5)nc5ccccc54)CC3)n2)cc1	-4.8%	-2.4%	?	.
C=CCC1(O)C(=O)Nc2ccccc21 (stereo not given)	-9.4%	0.6%	1.9%	-12.4
CN(C)c1nc(N)nc(CSc2nnnn2C)n1	8.0%	-3.2%	-18.6%	-1.5
Cc1cc(C)n(C(=O)c2cccc(S(=O)(=O)N3CCCCC3)c2)n1	8.8%	0.5%	-2.5%	-0.6
C=CCN(c1ccccc1OC)S(=O)(=O)c1cccc(C(=O)NC2=NCCS2)c1	3.7%	-0.4%	.	.
CC(=O)Nc1ccc(NCC(=O)c2ccccc2)cc1	27.5%	-1.5%	-6.1%	.
CC(=O)N1CCc2cc(S(=O)(=O)CCC(=O)N3CCN(c4ccccn4)CC3)ccc21	15.0%	-0.3%	-3.8%	5.7
Cc1ccc(NC(=O)CNCc2cccs2)c(Br)c1	19.6%	0.3%	-67.3%	.
CC(C)CN(C1CCS(=O)(=O)C1)S(=O)(=O)c1ccc(C(C)C)cc1 (stereo not given)	1.8%	3.3%	.	.
CCOCCCNC(=O)c1ccccc1OC1CCN(S(C)(=O)=O)CC1	0.3%	0.4%	-8.3%	4.9
CCN1CCCC1CNC(=O)Cn1ncc2c(=O)oc3ccc(C)cc3c21 (stereo not given)	8.4%	0.1%	-8.1%	6.3
COc1ccc(C)cc1NC(=O)CN(C)S(=O)(=O)c1cnc[nH]1	-3.3%	-0.3%	-1.7%	8.0
C#Cc1cccc(NC(=O)CSc2nnc(-c3ccc(C(F)(F)F)cn3)o2)c1	7.6%	-0.6%	-64.9%	6.9
COc1ccc(C(F)(F)F)cc1N/C=C/c1nnnn1-c1ccc2ccccc2c1	-7.8%	4.1%	0.9%	4.9
COc1ccc(CNC(=O)c2ccc(Br)o2)cc1	4.4%	3.1%	-30.7%	-5.1&4.0
O=C(Nc1cccc(O)c1)c1noc2c1CCc1ccccc1-2	13.0%	?	26.0%&17.7%	12.6
O=S(=O)(c1cc(C(F)(F)F)ccc1Cl)N1CCN(c2ncnc3ccccc23)CC1	1.7%	1.5%	.	.
CCC12CSc3nc(Cl)ccc3N1C(=O)C(=O)N2C (stereo not given)	-5.6%	-1.1%	-15.5%	-2.8
CC(=O)OCC(=O)c1ccc2ccn(C(C)=O)c2c1	7.9%	8.1%	-8.8%	-8.5
COc1ccccc1-c1ccc(=O)n(CC(=O)NC2CCc3ccccc32)n1 (stereo not given)	20.2%	-0.1%	?	2.6
Cc1cc(CN2CCN(CC(=O)Nc3cc(C(F)(F)F)ccc3-n3cncn3)CC2)no1	-10.8%	3.0%	.	.
CC(=O)N(c1cccc(Cl)c1)c1nc(C)cc(C)c1C#N	41.3%	0.7%	-1.5%	6.8
COc1ccc(C(=O)NCCNc2nc3c(C)cccc3cc2C#N)cc1OC	?	?	-24.6%	.
O=C(NCc1cccnc1)c1sc2cc(Cl)ccc2c1Cl	4.8%	-3.9%	-11.1%	4.3
CN(CCNC(=O)c1cn(C)c2ccc(S(=O)(=O)N3CCCC3)cc2c1=O)CCc1ccccc1	-2.0%	-0.2%	-5.9%	-4.2
Cc1ccccc1NC(=O)CCNS(=O)(=O)c1cccc2nsnc12	-8.8%	0.0%	-1.9%	.
CN(C)S(=O)(=O)c1ccc(C(=O)OCc2ccc(C#N)cc2)cc1	1.7%	-0.3%	-3.6%	0.8
CCOC(=O)C1CCCN(S(=O)(=O)c2ccc(S(=O)(=O)N3CCCC3)cc2)C1 (stereo not given)	1.8%	0.7%	.	.
CCCCCCn1c(N2CCN(c3cccc(Cl)c3)CC2)nc2c1c(=O)[nH]c(=O)n2C	11.0%	-0.5%	0.3%	-21.8
COc1ccc(-n2c(SCC(=O)Nc3nc(C)cs3)nnc2-c2ccoc2C)cc1	-16.0%	-1.0%	3.3%[7.66 µM]	-1.5
Cc1cccc(OC(C)C(=O)Nc2cc(S(=O)(=O)N3CCCCC3)ccc2C)c1 (stereo not given)	5.5%	1.7%	.	.
O=S(=O)(c1ccccc1C(F)(F)F)N1C=CC(C(F)(F)F)=NCC1	0.6%	-1.2%	-1.1%	-2.8
CN(C)S(=O)(=O)c1cccc(C(=O)OCC(=O)c2c(N)n(C)c(=O)n(C)c2=O)c1	-18.7%	5.4%	-8.1%	-1.0
Cc1ccc(C(=O)ONc2ccc(N=NC(=O)c3ccccc3O)cc2)cc1	-1.6%	-0.4%	0.2%	-9.7
CC1CN(C)C(C)CC1NCc1ccc2c(c1)OCO2 (stereo not given)	-2.5%	-2.6%	-5.5%	-1.4
CC1Cc2ccccc2N1C(=O)/C=C/c1cccc(F)c1 (stereo not given)	10.1%	0.1%	-59.3%	-2.4
Cc1ccccc1S(=O)(=O)Cc1ccc(C(=O)NC(C)c2ccccc2)o1 (stereo not given)	1.5%	0.9%	0.2%	.
CCOc1ccc(CCNC(=O)CN2CCN(Cc3ccccc3F)C2=O)cc1OCC	-2.6%	0.8%	-4.8%	-10.0
CCn1c(SC)nnc1C1CCCN(CC(=O)Nc2ccccc2N2CCOCC2)C1 (stereo not given)	-10.1%	-0.9%	0.4%	.
CCOC(=O)c1ccc(NC(=S)NCCCN2CCCCC2)cc1	15.2%	-1.0%	-0.6%	4.3
COc1ccc(C(=O)COC(=O)CCS(=O)(=O)c2ccc(C)cc2)c(OC)c1	0.3%	-2.1%	.	.
CC(=O)c1ccc(N2C(=NC(=O)COc3ccccc3)SC3CS(=O)(=O)CC32)cc1 (stereo not given)	6.8%	-0.2%	-2.7%	.
CCC1=C(OC(=O)N(CC)CC)N2C(=O)OC(=NCCc3c[nH]c4ccccc34)[C@]2(Cc2ccccc2)[C@H]2C1=CC[C@H]1C(=O)N(CC)C(=O)[C@H]12	-4.6%	3.6%	17.8%	-3.7&-5.3
